KCNQ2 block: KCNQ2 potassium channel inhibitors, primary screen, cell-based, CHO-K1, FluxOR thallium flux, B-score (AID 2156). O88943. 20 min; stronger effect = lower value; only compounds with negative scores are shown here; some inactives read as strong as hits. B-score at 10 µM. hit rate 1.1% among 310,000;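 active = fluorescence ratio B-score at most minus 3 library SDs, with starting brightness B-score within 2 library SDs, cut at about -5.5 in these data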
Target sequence (O88943 whole entry, looked up): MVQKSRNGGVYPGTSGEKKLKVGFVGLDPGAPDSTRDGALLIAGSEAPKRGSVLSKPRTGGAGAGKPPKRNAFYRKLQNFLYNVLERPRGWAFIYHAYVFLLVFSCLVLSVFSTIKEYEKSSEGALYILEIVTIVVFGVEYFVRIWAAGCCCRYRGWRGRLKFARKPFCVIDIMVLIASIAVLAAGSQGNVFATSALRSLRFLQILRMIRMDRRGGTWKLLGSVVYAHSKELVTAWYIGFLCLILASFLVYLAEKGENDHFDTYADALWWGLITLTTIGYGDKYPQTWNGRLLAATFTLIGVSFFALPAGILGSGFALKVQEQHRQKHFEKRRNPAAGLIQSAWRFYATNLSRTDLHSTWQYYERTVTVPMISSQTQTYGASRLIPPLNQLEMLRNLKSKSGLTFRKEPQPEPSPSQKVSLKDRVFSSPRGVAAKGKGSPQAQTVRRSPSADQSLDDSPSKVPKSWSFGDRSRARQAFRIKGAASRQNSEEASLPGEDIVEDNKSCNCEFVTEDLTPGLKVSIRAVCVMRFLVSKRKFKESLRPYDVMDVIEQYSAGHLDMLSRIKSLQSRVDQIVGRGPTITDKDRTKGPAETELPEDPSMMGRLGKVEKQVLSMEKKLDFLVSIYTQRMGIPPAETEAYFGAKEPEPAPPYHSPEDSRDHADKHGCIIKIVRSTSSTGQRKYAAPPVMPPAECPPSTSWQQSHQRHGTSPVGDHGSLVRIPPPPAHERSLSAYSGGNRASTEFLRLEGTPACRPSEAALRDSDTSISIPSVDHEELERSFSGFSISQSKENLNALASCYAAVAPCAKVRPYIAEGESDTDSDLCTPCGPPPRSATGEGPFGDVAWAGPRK
KCNQ2 block baseline: recorded beside KCNQ2 block, whose call it bears; B-score; measured here: initial fluorescence intensity artifact check;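 brightness before thallium and not channel activity; 0 = typical well and far values either way flag optical interference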
Starred values were filed as active, the others as inactive; i = inactive. These rows are one share of the data (hit frequency here may not be typical).

SMILES | KCNQ2 block | KCNQ2 block baseline
COc1ccc(C(=O)C(CCCCC(CN(C)C)C(=O)c2ccc(OC)cc2)CN(C)C)cc1 (stereo not drawn) | i | 2.6
O=C(NCc1ccco1)C(c1ccco1)N(CCc1ccccc1)C(=O)Cn1nnc2ccccc21 (stereo not drawn) | i | 0.72
Cc1ccc(CNC(=O)C2CCCN2C(=O)NCc2ccccc2)cc1 (stereo not drawn) | i | 0.59
COCCN(C(=O)c1ccco1)c1nnc(-c2ccc(F)cc2)s1 | i | -0.74
COc1ccccc1N1CCN(CCN2C(=O)C3CCCN3C2=O)CC1 (stereo not drawn) | i | -0.8
COc1ccccc1CCC(=O)N(CCC1=CCCCC1)c1c(N)n(Cc2ccccc2)c(=O)[nH]c1=O | i | -0.8
CNCC(=O)Nc1ccc(Cl)c(C(F)(F)F)c1 | i | 0.02
COc1cccc(NC(=O)CCNS(=O)(=O)c2ccc(Br)s2)c1 | i | -0.44
Cc1ccc(S(=O)(=O)Nc2nc3ccccc3nc2NCC2CCCO2)cc1C (stereo not drawn) | i | -1.5
O=C(COC(=O)c1cccc(NS(=O)(=O)c2ccc(F)c(F)c2)c1)NC(=O)NC1CCCCC1 | i | -0.44
CCn1c(=O)n(CC(=O)NC2CCCC(C)C2C)c(=O)c2ccccc21 (stereo not drawn) | i | -0.06
N#Cc1ccccc1OCc1nnc(-c2ccccc2Br)o1 | i | -0.99
COc1ccc(-c2cc(C(=O)Nc3cc(Cl)ccc3O)no2)cc1 | i | 0.26
COc1ccccc1CN1CC(C(=O)NCc2ccc(SC)cc2)CCC1=O (stereo not drawn) | i | -2.2
COc1ccc(S(=O)(=O)N2CCN(C)CC2)cc1NC(=O)c1ccccc1C | i | 3.2
COc1ccccc1CN1CCN(Cc2nc(-c3ccccc3)no2)CC1 | i | 1.7
O=C(N[C@@H](Cc1ccccc1)C(=O)OCc1ccccc1)c1nc[nH]c1C(=O)N1CCc2ccccc2C1 | i | -0.32
Cc1ccc(NC(=O)CCCCCN2C(=O)[C@@H]3Cc4ccccc4CN3C2=O)c(C)c1 | i | 0.08
O=C1CNC(=S)N1CCc1ccc(O)c(O)c1 | i | 0.17
Clc1ccc(-c2cc(-c3nnc4n3CCCCC4)c3ccccc3n2)cc1 | i | -0.92
c1ccc(-c2nc(NCCCn3ccnc3)c3ccccc3n2)cc1 | i | 0.7
Cc1onc(-c2ccccc2)c1C(=O)Nc1sc2c(c1C#N)CCC(C)C2 (stereo not drawn) | i | -0.83
COC(=O)c1cccc(-n2c(CCC(=O)O)ccc2-c2cccs2)c1 | i | 0.14
CC(C)Oc1ccccc1-c1cc(C(=O)N/N=C/c2cccnc2)c2ccccc2n1 | i | -0.76
COCCNC(=S)N/N=C(\C)c1ccc(-n2ccnc2)cc1 | i | -1
CCN(CCn1cccn1)C(=O)c1cc(COc2cc(C)ccc2C)on1 | i | 0.23
Cc1cccc(NC(=O)C2Cc3ccccc3CN2C(=O)OCc2ccccc2)c1C (stereo not drawn) | i | 1.2
Cc1ccc(Cc2nc(-c3cccc(C)c3)no2)cc1 | i | -1.3
Oc1ccc(-c2csc(-c3ccccc3)n2)cc1O | i | 0.85
COc1ccccc1C(=O)Nc1cccnc1 | i | -0.94
COc1cc(C2c3sc(=O)[nH]c3SC3C(=O)N(c4ccc(Br)cc4)C(=O)C32)ccc1O (stereo not drawn) | i | -0.32
CCOc1ccc(C(=O)NC(C(=O)NCC2CCCO2)C(C)C)cc1 (stereo not drawn) | i | 1.2
COc1ccc(C(=S)Nc2ccc(C)cc2)cc1 | i | -2
Cc1ccc(S(=O)(=O)N2CCCCC2CCNC(=O)C(=O)NC2CCCC2)cc1 (stereo not drawn) | i | 1.3
CC(C)CNC(=O)c1coc(=O)c(Br)c1 | i | -2.9
COc1ccc(-c2nc(CS(=O)(=O)CC(=O)NC3CCCCCC3)c(C)o2)cc1 | i | 2.4
COC(=O)c1noc(C)c1-c1ccnn1C(=O)c1ccc(Cl)cc1 | i | 0.49
O=[N+]([O-])c1ccccc1/C=C/CN1CCN(Cc2ccc3c(c2)OCO3)CC1 | i | 0.11
CN(C)C(CNS(=O)(=O)c1ccc(Cl)cc1)c1cccnc1 (stereo not drawn) | i | 1.6
O=C(c1ccc(Br)o1)N1CCN(c2ccc3nnc(-c4ccccc4)n3n2)CC1 | i | 0.55

Among those listed so far, these contain a cyano group:
SMILES | KCNQ2 block | KCNQ2 block baseline
N#Cc1ccccc1OCc1nnc(-c2ccccc2Br)o1 | i | -0.99
Cc1onc(-c2ccccc2)c1C(=O)Nc1sc2c(c1C#N)CCC(C)C2 (stereo not drawn) | i | -0.83

Carrying on.
SMILES | KCNQ2 block | KCNQ2 block baseline
Cc1nnc(NC(=O)CCCCCN2C(=O)C3C4C=CC(C4)C3C2=O)s1 (stereo not drawn) | i | 1.2
CC(=O)c1ccccc1Oc1cc(NN2CCCCC2)c([N+](=O)[O-])cc1[N+](=O)[O-] | i | -1.3
O=C(CCn1c(=O)oc2ccccc21)N(Cc1ccccc1)c1ccccc1 | -11* | -0.46*
Cc1ccc(CO/N=C/c2c(O)cc(C)oc2=O)cc1 | i | -0.01
O=C(CN1CCCC1)Nc1ccc(OCc2ccccc2)cc1 | i | 3.6
OC(CNC1Cc2ccccc2C1)COc1ccc(F)cc1 (stereo not drawn) | i | -0.52
CS(=O)(=O)N(CC(=O)Nc1ccc2c(c1)OCO2)c1ccccc1 | i | 1.8
NC1=NC(c2ccccc2)=NC1(NC(=O)c1ccccc1)C(Cl)Cl (stereo not drawn) | i | 1.5
COCCCNC(=O)N1c2ccccc2Sc2ccccc21 | i | -2.4
COc1ccc(C2(c3ccc(OC)cc3)NC(=O)N(CC(=O)Nc3ccccc3C(F)(F)F)C2=O)cc1 | i | -0.04
COc1ccc(C(=O)Nc2ccc(CN3CCCCC3)cc2)cc1 | i | -1.2
N#CCCN(C(=O)COC(=O)CCc1ccccc1)c1ccccc1 | i | 0.76
O=[N+]([O-])c1ccc2c(c1)nc1n2CCN(CC2CCCO2)C1 (stereo not drawn) | i | -2.4
Cc1ccc(SCc2cc(=O)n3ccsc3n2)c(C)c1 | i | 0.82
CO/N=C(\C)C(Cc1ccc(Cl)nc1)Cc1ccc(Cl)nc1 | i | -0.9
Cc1c(C(=O)Nc2c(F)cccc2F)sc2ncnc(N3CCN(c4ccccc4)CC3)c12 | i | 0.17
CCC(NC(=O)c1[nH]c(C)c(C(C)=O)c1C)c1ccc(Br)cc1 (stereo not drawn) | i | 1.4
COCCN(C(=O)CSc1nnc(-c2ccc(C)c(C)c2)o1)c1c(N)n(CC(C)C)c(=O)[nH]c1=O | i | -0.73
CC1(C)Cc2c(cnn2-c2ccccc2)C(=O)/C1=N\NC(=O)c1ccccc1O | i | -0.14
COc1cc(/C=C/C(=O)N2CCN(Cc3ccccc3)CC2)cc(OC)c1OC | i | -0.62
Cn1nc(CC(=O)NC2CCCCCCCCCCC2)c2ccccc2c1=O | i | -0.01
Nc1cc(Cl)ccc1Oc1ccc2ccccc2c1 | i | 2.3
Cc1cc(C)c(NC(=O)CSc2nc(COc3ccccc3)nc3ccccc23)c(C)c1 | i | 0.83
CCn1cc(C(=O)O)c(=O)c2cc(F)c(N/N=C/c3ccccc3)cc21 | i | -1.7
O=C(N1CCc2[nH]c3ccccc3c2C1)C(F)(F)F | i | 0.02
O=C1NC(=Nc2ccc(O)cc2)S/C1=C\C=C\c1ccco1 | i | -0.05
O=C(c1cccs1)N1CCc2ccccc21 | i | 0.1
S=C(Cc1ccc(Cl)cc1)N1CCOCC1 | i | -0.03
CC1(C(=O)CSc2n[nH]c(-c3ccccc3Cl)n2)CCC(=O)O1 (stereo not drawn) | i | -0.15
CCOc1ccc(S(=O)(=O)N2CCC(C(=O)OCc3ccc(OC)cc3)CC2)cc1 | i | -0.64

Part of the list above, with values ahead of the structure:
KCNQ2 block,KCNQ2 block baseline,SMILES
i,-0.01,Cn1nc(CC(=O)NC2CCCCCCCCCCC2)c2ccccc2c1=O
i,0.1,O=C(c1cccs1)N1CCc2ccccc21

(next part)
SMILES | KCNQ2 block | KCNQ2 block baseline
CC1CCN(C(=O)c2ccccc2NC(=O)c2cccs2)CC1 | i | 2.5
CCc1n(CC(O)COCc2ccccc2)c2ccccc2[n+]1C (stereo not drawn) | i | 0.84
O=C(Cc1cccs1)Nc1ccc(S(=O)(=O)N2CCCC2)cc1 | i | 1.4
O=c1[nH]ncc(NCCc2ccccc2)c1Cl | i | 0.73
O=C(Oc1nsnc1N1CCOCC1)N(c1ccccc1)c1ccccc1 | i | -0.32
CCCCSc1nc2ccc(Nc3nc(N4CCOCC4)nc(N4CCOCC4)n3)cc2s1 | i | -0.04
COc1ccc(NC(=S)N2CCN(S(=O)(=O)c3ccc(C)cc3)CC2)cc1 | i | 0.73
Cc1noc(C)c1COC(=O)Cc1ccc(Cl)cc1 | i | 0.11
CCCCc1nc(SCc2ccc([N+](=O)[O-])cc2)n[nH]1 | i | 0.02
CCc1nc2oc3ccccc3c(=O)c2c(=O)n1CCOC | i | -1.2
CC(=O)N1CCc2c(sc3c2c(=O)n(Cc2ccccc2)c(=O)n3CC(=O)NCC2CCCO2)C1 (stereo not drawn) | i | -0.51
CCN1CCN(CNC(=O)c2cnccn2)CC1 | i | 1.9
Cc1ccsc1/C=C1/C(=O)NN(c2ccccc2)C1=O | i | -0.42
O=C(COC(=O)c1cc(F)c(F)cc1Cl)NC1CC1 | i | -0.39
COc1ccc(C2(O)CN(c3ccccc3)C3=[N+]2CCS3)cc1OC (stereo not drawn) | i | 0.13
Oc1c(Br)cc(Br)cc1C=NCc1ccccc1 | i | 19
Cc1ccc2nc(SCC3CCCCO3)[nH]c2c1 (stereo not drawn) | i | 0.13
CCNC(=O)/C=C/c1ccccc1[N+](=O)[O-] | i | -0.64
O=C(O)CCN(Cc1ccccc1)S(=O)(=O)c1ccccc1Cl | i | 0.05
Cc1cccc(CSc2nnc([C@@H]3CCCN3C(=O)OC(C)(C)C)o2)c1 | i | 0.87
CC(C)(C)NC(=O)c1cc(Cl)ccc1[N+](=O)[O-] | i | -0.29
CCOC(=O)C(=NC(C)CC)NNc1ccc(Br)cc1 (stereo not drawn) | i | -0.82
OC(CN1CCOCC1)Cn1c(-c2cccc(Cl)c2)nc2ccccc21 (stereo not drawn) | i | -1.1
O=S(=O)(Nc1cccc(-c2ccc(N3CCCCCC3)nn2)c1)c1ccc(C(F)(F)F)cc1 | i | 1.9
COc1ccc(-c2cc(-c3cccs3)c(C#N)c(SCC(=O)NCc3ccccc3OC)n2)cc1 | i | 2.6
CCn1c(C)c(C(C)=O)c(N2CCN(c3ccc(F)cc3)CC2)nc1=S | i | 1.4
Cc1cc(OCCn2cncn2)ccc1[N+](=O)[O-] | i | -0.96
CN1CCN(C2=Nc3cc(F)ccc3Cc3ccccc32)CC1 | i | -2.5
Cc1cc(S(=O)(=O)N2CCOCC2)ccc1OCC(=O)NCC1CCCO1 (stereo not drawn) | i | -0.57
CN1CCC(N(C)C(=O)c2ccccc2Nc2ccc(SC(F)F)cc2)CC1 | i | -0.18
COc1cc2nc(C3CCC3)n(NC(=O)C3CCC(OC)CC3)c(=O)c2cc1OC (stereo not drawn) | i | -1.1
COc1ccc(C(=O)N=c2c(C#N)cc3c(=O)n4cccc(C)c4nc3n2Cc2ccco2)cc1 | i | 2.6
O=[N+]([O-])c1ccc(N2CCN(CC(O)COc3ccccc3)CC2)cc1 (stereo not drawn) | i | -1.4
Clc1ccc(CN2CCC(c3ccccc3)CC2)cc1 | i | -0.94
Cc1ccc(/C=C2\Oc3c(ccc(O)c3CN3CCN(C)CC3)C2=O)cc1 | i | 14
C[C@H]1CN=C(Nc2ccccc2)N1CC1CCCCC1 | i | 0.49
Cc1ccc(OCC(=O)NC2CCSc3ccccc32)cc1 (stereo not drawn) | -5.9* | 0.16*
CCCCN(C)CCNC(=O)CCn1nc(-c2ccc(C)cc2)ccc1=O | i | 0.41
CC(C)c1ccc(C2/C(=C(\O)c3ccc4c(c3)OCCO4)C(=O)C(=O)N2CCN2CCOCC2)cc1 (stereo not drawn) | i | -0.25
CCOC(=O)CNC(=O)c1ccc(C)cc1 | i | -0.77

Of the compounds above, these have bromine.
SMILES | KCNQ2 block | KCNQ2 block baseline
COc1cccc(NC(=O)CCNS(=O)(=O)c2ccc(Br)s2)c1 | i | -0.44
N#Cc1ccccc1OCc1nnc(-c2ccccc2Br)o1 | i | -0.99
COc1cc(C2c3sc(=O)[nH]c3SC3C(=O)N(c4ccc(Br)cc4)C(=O)C32)ccc1O (stereo not drawn) | i | -0.32
CC(C)CNC(=O)c1coc(=O)c(Br)c1 | i | -2.9
O=C(c1ccc(Br)o1)N1CCN(c2ccc3nnc(-c4ccccc4)n3n2)CC1 | i | 0.55
CCC(NC(=O)c1[nH]c(C)c(C(C)=O)c1C)c1ccc(Br)cc1 (stereo not drawn) | i | 1.4
Oc1c(Br)cc(Br)cc1C=NCc1ccccc1 | i | 19
CCOC(=O)C(=NC(C)CC)NNc1ccc(Br)cc1 (stereo not drawn) | i | -0.82

(cont.)
SMILES | KCNQ2 block | KCNQ2 block baseline
O=C1CC(Cc2ccccc2)C(=O)N1CCCn1ccnc1 (stereo not drawn) | i | -2.8
COc1ccc(N(C)C(=O)c2ccc3c(Cl)c4c(nc3c2)CCCC4)c(OC)c1 | i | 1.8
O=C(Nc1ccccc1N1CCOCC1)C1=COCCO1 | i | -0.05
NC(=O)CC[C@H](NC(=O)OCc1ccccc1)C(=O)OCc1ccc(Cl)cc1 | i | 0.05
COc1ccccc1C1(CC(=O)Nc2nccs2)CCOC(C(C)C)C1 (stereo not drawn) | i | -1.7
CN=c1scc(-c2ccccc2F)n1/N=C(\C)c1cccnc1 | i | 0.02
CCN(Cc1ccccc1)C(=O)CCc1nnc(CCCc2ccccc2)o1 | -10* | 2.3*
